Screens deposited in PubChem by Broad Institute.
MLL AF4-AF9 inh = MLL-AF4/AF9 protein interaction inhibition; 350,000 compounds, 0.47% hits; inhibition, % at 10 µM; AlphaScreen, biotin-AF4 peptide binding to FLAG-AF9;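 active = every replicate reaching a set inhibition limit, whatever the replicate mean, cut at about 25% in these data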;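 note: 0% = plate neutral control median and 100% = total signal loss; the record names both 10 and 1 µM as test concentration; the first replicate is given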
Target sequence (P42568 whole entry, looked up): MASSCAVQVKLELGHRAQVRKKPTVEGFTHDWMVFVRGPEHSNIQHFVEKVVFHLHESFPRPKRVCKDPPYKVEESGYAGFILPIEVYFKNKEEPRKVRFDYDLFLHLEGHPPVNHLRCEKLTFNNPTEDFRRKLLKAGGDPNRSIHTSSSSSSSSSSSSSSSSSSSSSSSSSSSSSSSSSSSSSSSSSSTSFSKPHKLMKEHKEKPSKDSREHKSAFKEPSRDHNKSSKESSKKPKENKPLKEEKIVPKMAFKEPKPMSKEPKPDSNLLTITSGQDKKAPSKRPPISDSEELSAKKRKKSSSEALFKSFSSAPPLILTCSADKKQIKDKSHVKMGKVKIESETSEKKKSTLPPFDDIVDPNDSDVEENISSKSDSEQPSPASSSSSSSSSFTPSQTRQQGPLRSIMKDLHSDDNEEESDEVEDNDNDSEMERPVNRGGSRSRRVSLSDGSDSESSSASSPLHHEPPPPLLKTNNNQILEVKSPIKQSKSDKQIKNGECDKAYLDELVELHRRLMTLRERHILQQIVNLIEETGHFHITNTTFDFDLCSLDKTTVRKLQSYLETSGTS
rRNA inh HTS = selective bacterial rRNA inhibition in E. coli; E. coli WT GFP vs humanized-ribosome RFP mutants, fluorescence, 24 h; hits give low values; DMSO median 0, no signal -100; AID 720706; 350,000 compounds, 1.6% hits; GFP signal change (wild-type ribosome), % (no concentration beside the values);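 active = significant combined selectivity score with lowered wild-type GFP, culture density cut under 30%, mutant RFP and density less affected; inactive = any of these conditions unmet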; note: one replicate is shown; some compounds called inactive have numbers as strong as hits
rRNA inh HTS OD600 = also measured in rRNA inh HTS; calls as there; OD600 change, %; measured here: OD600 growth;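 optical density of the mix in the first replicate; 0 = DMSO median and -100 = no signal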
rRNA inh HTS RFP = recorded beside rRNA inh HTS, whose call it bears; RFP signal change, %; measured here: RFP humanized mutant strains;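 first replicate; 0 = DMSO median and -100 = no signal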
The depositor's hits bear a star; & = joins results of further samples. An excerpt. The share of hits here may be higher or lower than overall.

SMILES	MLL AF4-AF9 inh	rRNA inh HTS	rRNA inh HTS OD600	rRNA inh HTS RFP
N#C[C@@H]1[C@H](c2ccccc2C2=CCCC2)[C@H](CO)N1C(=O)NC1CCCC1	0.2	-16	-58	-4.0
CCCN1[C@@H]2c3ccc(C4=CCCCC4)c(=O)n3C[C@@H]2[C@@H](CO)[C@@H]1C(=O)N(C)C	-4.6	7	4	3.5
O=C(Nc1ccccc1)N1CC(=O)N2[C@H](CO)[C@@H](c3ccc(C#CC4CC4)cc3)[C@@H]2C1	3.4	2	-54	23
CCCNC(=O)C[C@H]1CC[C@@H]2[C@@H](COc3ccc(NS(=O)(=O)c4ccccc4C)cc3C(=O)N2C)O1	-0.1	-5	-1	-2.0
CCc1ccc(OCC(=O)NNC(=O)c2ccc(-n3cncn3)c([N+](=O)[O-])c2)cc1	-2.0	10	12	1.1
COc1cccc(C(=O)Nc2ccc3c(c2)OC[C@@H](C)N(C)C[C@@H](C)[C@@H](OC)CN(C)C3=O)c1	-1.0	-3	0	-0.8
O=C(C[C@H]1C=C[C@@H](NC(=O)C2CCOCC2)[C@@H](CO)O1)Nc1ccccc1	3.9	1	1	0.3
CN1C(=O)c2cc(NC(=O)C3CCCCC3)ccc2OC[C@@H]2O[C@@H](CC(=O)NCC3CCCCC3)CC[C@@H]21	-3.0	-3	-3	5.0
CN1c2ccc(-c3cccc(C#N)c3)cc2[C@@H]2[C@@H](CCN2C(=O)C2CCCC2)[C@@H]1CO	17	-45	-56	29
CC(=O)Oc1[nH]c(=O)c2cccc3c2c1CCC3	1.9	1	-4	-1.7
Cc1ccc(S(=O)(=O)N(C)C[C@H]2OCCCC[C@@H](C)Oc3ccc(NC(=O)c4ccncc4)cc3C(=O)N([C@@H](C)CO)C[C@H]2C)cc1	1.9	-4	-12	3.3
C[C@@H]1CCCCO[C@@H](CN(C)C(=O)Nc2ccccc2)[C@H](C)CN([C@H](C)CO)C(=O)c2cc(NC(=O)CCCN(C)C)ccc2O1	1.5	1	-9	-0.3
C[C@H](CO)N1C[C@H](C)[C@@H](CN(C)S(=O)(=O)c2ccc(F)cc2)OCCCC[C@H](C)Oc2ccc(NC(=O)Nc3ccc4c(c3)OCO4)cc2C1=O	-0.4	0	3	-3.5
O=C(Nc1ccccc1)N1C[C@@H]2N[C@H](C1)C2c1ccc(-c2ccccc2)cc1 (some centres not stated)	5.4&7.9	-3&-16	-41&-37	29&15
C=C1C(=O)[C@]23C[C@H]1CCC2[C@@]1(C)C(C[C@@H]3O)[C@](C)(C(=O)OC)CC[C@@H]1OC(C)=O (some centres not stated)	-4.3	6	-2	-1.0
Cc1ccc(C(=O)OCC(=O)N2CCCc3ccccc32)cc1C	0.1	-27	-47	-3.5
COc1cccc(NC(=O)N[C@H]2C=C[C@H](CC(=O)Nc3ccccc3)O[C@H]2CO)c1	-5.8	-1	-4	0.1
COc1cccc(CN2CC3(CN(C)C3)c3c(n(C)c4cc(OC)ccc34)[C@@H]2CO)c1	17	2	3	0.7
C[C@@H]1CN([C@H](C)CO)C(=O)c2cc(NS(=O)(=O)c3ccc(Cl)cc3)ccc2O[C@@H](C)CCCCO[C@H]1CN(C)Cc1ccccc1	4.5	-42	-70	9.4
O=C(Nc1cccc(F)c1)N1CC(=O)N2[C@@H](CO)[C@H](c3ccc(C#Cc4cccnc4)cc3)[C@@H]2C1	-4.4	-3	1	-2.5
C[C@@H]1CCCCO[C@@H](CN(C)S(=O)(=O)c2cccs2)[C@@H](C)CN([C@H](C)CO)C(=O)c2cc(NS(=O)(=O)c3cccs3)ccc2O1	-0.1	0	-5	0.1
O=C(CN1C(=O)C2CCCCC2C1=O)NC1CCCc2ccccc21 (configuration not stated)	-0.2	5	13	1.9
O=C(NCC[C@H]1CC[C@@H](NS(=O)(=O)c2ccc(Cl)cc2)[C@@H](CO)O1)Nc1ccc(F)cc1	16	-5	0	3.2
O=C(C[C@H]1C[C@@H]2c3cc(NC(=O)C4CCC4)ccc3O[C@@H]2[C@@H](CO)O1)NCC(F)(F)F	-0.4	3	-7	-0.1
O=C(C[C@@H]1C[C@@H]2c3cc(NC(=O)c4cccnc4)ccc3O[C@@H]2[C@H](CO)O1)NCc1ccccc1F	1.9	-5	-3	1.0

Record cards, from the list above. Screens in order: MLL AF4-AF9 inh, rRNA inh HTS, rRNA inh HTS OD600, rRNA inh HTS RFP
C[C@H](CO)N1C[C@H](C)[C@@H](CN(C)S(=O)(=O)c2ccc(F)cc2)OCCCC[C@H](C)Oc2ccc(NC(=O)Nc3ccc4c(c3)OCO4)cc2C1=O is entered as -0.4, 0, 3, -3.5
CCCNC(=O)C[C@H]1CC[C@@H]2[C@@H](COc3ccc(NS(=O)(=O)c4ccccc4C)cc3C(=O)N2C)O1 is entered as -0.1, -5, -1, -2.0
C[C@@H]1CN([C@H](C)CO)C(=O)c2cc(NS(=O)(=O)c3ccc(Cl)cc3)ccc2O[C@@H](C)CCCCO[C@H]1CN(C)Cc1ccccc1 is entered as 4.5, -42, -70, 9.4
CCCN1[C@@H]2c3ccc(C4=CCCCC4)c(=O)n3C[C@@H]2[C@@H](CO)[C@@H]1C(=O)N(C)C is entered as -4.6, 7, 4, 3.5
C[C@@H]1CCCCO[C@@H](CN(C)C(=O)Nc2ccccc2)[C@H](C)CN([C@H](C)CO)C(=O)c2cc(NC(=O)CCCN(C)C)ccc2O1 is entered as 1.5, 1, -9, -0.3

(next part)
SMILES	MLL AF4-AF9 inh	rRNA inh HTS	rRNA inh HTS OD600	rRNA inh HTS RFP
O=C(C1CC1)N1CC(=O)N2[C@H](C1)[C@@H](c1ccc(Br)cc1)[C@@H]2CO	-3.5	5	23	-8.2
N#Cc1cccc(-c2ccc(C3[C@@H]4CN(C(=O)C5CC5)C[C@H]3N4)cc2)c1 (some centres not stated)	-5.7&-11	0&-2	-3&2	-2.0&-0.2
O=C(C[C@@H]1CC[C@H](NC(=O)c2ccncc2)[C@@H](CO)O1)NCc1ccncn1	-0.9	2	6	0.2
N#C[C@@H]1[C@H](c2ccc(C#Cc3ccccc3F)cc2)[C@H](CO)N1C(=O)C1CCCC1	-5.6	-29	-36	0.2
CO[C@H]1CN(C)C(=O)c2ccc(NS(C)(=O)=O)cc2OC[C@H](C)N(C)C[C@@H]1C	-3.3	0	2	-4.0
O=C(NC1CCCCC1)N1CC(=O)N2[C@H](CO)[C@H](c3ccc(/C=C/c4ccccc4)cc3)[C@@H]2C1	9.2	-12	-39	23
CC(=O)N[C@@H]1CC[C@@H](CCNC(=O)C2CCCCC2)O[C@H]1CO	-3.2	1	8	-3.5
CO[C@@H]1CN(C)C(=O)c2cc(NS(=O)(=O)c3cn(C)cn3)ccc2OC[C@@H](C)N(Cc2cccc(Cl)c2)C[C@H]1C	5.9	-3	-12	0.0
Cc1ccc(S(=O)(=O)Nc2ccc3c(c2)C(=O)N([C@H](C)CO)C[C@@H](C)[C@H](CN(C)C(=O)C2CCCCC2)OCCCC[C@H](C)O3)cc1	0.0	-4	-12	1.8
C/C=C/c1ccc([C@@H]2[C@@H](CO)N(C(=O)C3CC3)C23CN(S(=O)(=O)CC)C3)cc1	2.4	-1	-3	2.1
COCC(=O)N1[C@H](C#N)[C@H](c2ccccc2C2=CCCCC2)[C@@H]1CO	0.8	-1	8	-2.0
O=C(C[C@@H]1CC[C@H]2[C@@H](COC[C@H](O)CN2C(=O)Cc2ccccc2)O1)NC1CCCC1	3.7	1	9	-1.3
O=C(Cc1ccccc1)N1CC(=O)N2[C@H](CO)[C@@H](c3ccc(C#Cc4ccccc4)cc3)[C@@H]2C1	-12	-19	-51	19
COc1cccc(-c2ccc([C@H]3[C@@H](CO)N4C(=O)CN(C(=O)C5CCC5)C[C@@H]34)cc2)c1	-5.3	-4	6	-0.9
CCCC#Cc1ccc([C@@H]2[C@@H](CO)N3C(=O)CN(C(=O)Nc4cc(F)ccc4F)C[C@@H]23)cc1	-2.1	-27	-49	30
C[C@H]1CN([C@@H](C)CO)C(=O)c2c(c3ccccc3n2C)-c2ccccc2CO[C@@H]1CN(C)Cc1ccc2c(c1)OCO2	9.5	-37	-31	16
COc1cccc(CN2CC3(CN(C)C3)c3c([nH]c4cc(OC)ccc34)[C@H]2CO)c1	8.1	6	-11	3.1
CO[C@H]1CN(C)C(=O)c2ccc(NS(=O)(=O)CC(F)(F)F)cc2OC[C@H](C)N(C(=O)c2ccc3c(c2)OCO3)C[C@H]1C	-1.4	0	1	-0.5
CCCNC(=O)C[C@@H]1CC[C@@H]2[C@H](COc3ccc(NC(=O)NCCC)cc3C(=O)N2C)O1	-9.8	1	6	-1.1
O=C1CNC[C@@H]2[C@@H](c3ccc(-c4ccccc4F)cc3)[C@H](CO)N12	-1.1	-2	-9	-0.9
CC(C)NC(=O)NCC[C@H]1CC[C@H](NS(=O)(=O)c2ccccc2)[C@@H](CO)O1	0.2	3	7	-2.0
CN1C(=O)c2cc(NC(=O)C3CCC3)ccc2OC[C@H]2O[C@@H](CC(=O)NCCc3ccncc3)CC[C@H]21	-1.0	0	-5	-3.4
C[C@H](CO)N1C[C@H](C)[C@@H](CN(C)S(=O)(=O)c2ccccc2)OCCCC[C@H](C)Oc2ccc(NC(=O)C3CCCCC3)cc2C1=O	-1.3	-1	-3	-3.5
COc1ccccc1C(=O)Nc1ccc2c(c1)OC[C@H](C)NC[C@H](C)[C@@H](OC)CN(C)C2=O	-4.2	3	0	-2.2
O=C(c1ccccc1)N1CC(=O)N2[C@@H](CO)[C@@H](c3ccc(C#Cc4ccccc4)cc3)[C@@H]2C1	0.6	-57	-71	-13

Following part:
SMILES	MLL AF4-AF9 inh	rRNA inh HTS	rRNA inh HTS OD600	rRNA inh HTS RFP
O=C(Nc1cccc(F)c1)N1CC(=O)N2[C@H](C1)[C@H](c1ccc(-c3cccc(F)c3)cc1)[C@@H]2CO	0.7	-22	-64	12
O=C(Nc1cccc(F)c1)N1C[C@@H]2N[C@H](C1)C2c1ccc(-c2cccnc2)cc1 (some centres not stated)	1.1&0.9	-6&9	7&6	0.0&-2.8
CN(C)CCCNC(=O)C[C@H]1CC[C@H]2[C@@H](COC[C@@H](O)CN2CC2CCCCC2)O1	-1.3	-4	-7	-2.5
CO[C@@H]1CN(C)C(=O)c2ccc(NC(=O)C3CCC3)cc2OC[C@@H](C)N(Cc2ccncc2)C[C@H]1C	-1.0	-3	-7	-1.3
COc1ccc2c3c(n(C)c2c1)[C@@H](CO)N(C(=O)c1ccccn1)CC31CCN(C)CC1	-5.5	9	13	-3.3
O=C1CN(Cc2ccccc2)C[C@@H]2[C@H](c3ccc(-c4cccnc4)cc3)[C@@H](CO)N12	9.3	-2	-5	-3.8
C[C@@H]1CN([C@@H](C)CO)C(=O)Cc2cc(NC(=O)Cn3cnnn3)ccc2O[C@H]1CN(C)Cc1ccc(C(=O)Nc2ccccc2N)cc1	1.6	-4	3	-2.1
COc1ccc(-c2ccc3n(c2=O)C[C@@H]2[C@@H](CO)[C@H](C(=O)NCC4CC4)N(C(=O)NC(C)C)[C@H]32)cc1	-13	-1	6	1.2
CC=Cc1ccc2n(c1=O)C[C@H]1[C@H](CO)[C@@H](C(=O)NCCC)N(C(=O)c3cccnc3)[C@@H]21 (mixture of isomers)	-0.5	0	2	-3.4
O=C1CN(S(=O)(=O)Cc2ccccc2)C[C@H]2[C@H](c3ccc(C#CCC4CCCC4)cc3)[C@@H](CO)N12	2.2	7	-6	0.2
Cc1ccc(S(=O)(=O)N(C)C[C@H]2OCCCC[C@H](C)Oc3ccc(NC(=O)NC(C)C)cc3C(=O)N([C@@H](C)CO)C[C@@H]2C)cc1	1.2	1	-1	3.1
O=C(c1cccc(F)c1)N1CC(=O)N2[C@H](C1)[C@@H](c1ccc(-c3cccnc3)cc1)[C@@H]2CO	-2.0	-1	21	-1.7
C[C@@H]1CN([C@@H](C)CO)C(=O)c2cc(NC(=O)CCCN(C)C)ccc2O[C@@H]1CN(C)C(=O)NC1CCCCC1	-2.9	3	-12	1.9
O=C(c1ccc(F)cc1)N1CC(=O)N2[C@H](CO)[C@@H](c3ccc(-c4ccccc4)cc3)[C@H]2C1	0.0	0	4	-0.1
O=C(C1CCC1)N1C[C@@H]2N[C@H](C1)C2c1ccc(-c2ccccc2F)cc1 (some centres not stated)	3.3&-15	-4&2	-6&-5	-3.6&-0.3
CN(C)CC#Cc1ccc([C@H]2[C@H](CO)N3CCCCN(C(=O)Nc4ccccc4F)C[C@@H]23)cc1	-1.5	-1	8	-4.9
COc1ccc2c3c([nH]c2c1)[C@@H](CO)N(C(=O)Nc1ccc(F)cc1)CC31CN(S(=O)(=O)c2cccs2)C1	-0.2	-4	-22	16

Part of the list above, reformatted.
> CC=Cc1ccc2n(c1=O)C[C@H]1[C@H](CO)[C@@H](C(=O)NCCC)N(C(=O)c3cccnc3)[C@@H]21 (mixture of isomers)
  MLL AF4-AF9 inh = -0.5
  rRNA inh HTS = 0
  rRNA inh HTS OD600 = 2
  rRNA inh HTS RFP = -3.4

> O=C1CN(S(=O)(=O)Cc2ccccc2)C[C@H]2[C@H](c3ccc(C#CCC4CCCC4)cc3)[C@@H](CO)N12
  MLL AF4-AF9 inh = 2.2
  rRNA inh HTS = 7
  rRNA inh HTS OD600 = -6
  rRNA inh HTS RFP = 0.2

> Cc1ccc(S(=O)(=O)N(C)C[C@H]2OCCCC[C@H](C)Oc3ccc(NC(=O)NC(C)C)cc3C(=O)N([C@@H](C)CO)C[C@@H]2C)cc1
  MLL AF4-AF9 inh = 1.2
  rRNA inh HTS = 1
  rRNA inh HTS OD600 = -1
  rRNA inh HTS RFP = 3.1

> O=C(c1cccc(F)c1)N1CC(=O)N2[C@H](C1)[C@@H](c1ccc(-c3cccnc3)cc1)[C@@H]2CO
  MLL AF4-AF9 inh = -2.0
  rRNA inh HTS = -1
  rRNA inh HTS OD600 = 21
  rRNA inh HTS RFP = -1.7
